Choline anaer gr – inhibitors of anaerobic choline-dependent gram-negative bacterial growth; Gram-negative bacterium anaerobic choline minimal medium, absorbance growth; active compounds read low; many inactives read as strong as hits in the columns shown; calls only; 55,000 compounds, 0.2% hits;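 active means growth z-score on choline under -2 at 7 or 20 h with little or no fall on glycerol, limits in tiers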;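 further: stock transfer was 300 nL into about 50 µL; the organism is E. coli; final concentration not given here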
Choline anaer gr early – second read-out of Choline anaer gr, no call of its own (marks repeat the call); z-score; measured here: choline growth z-score, timepoint 1;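 score of optical density at 7 h as mean of two plates; lower means less growth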
The depositor's hits bear a star; i = inactive; & = joins results of further samples. A portion of the library (hit frequency here may not be typical).

Choline anaer gr	Choline anaer gr early	canonical_smiles
i	1	O=c1c2sccc2n2c(SCc3ccccc3F)nnc2n1CC1CCCO1 (stereo unspecified)
i	1.1	O=C(Cn1ccn2nc(-c3ccc(Cl)cc3)cc2c1=O)Nc1ccccc1Br
i	0.59	Cc1ccc(NC(=O)CCc2nc(CSc3nnc(-c4ccccc4)o3)no2)cc1
i	1.2	CC(C)CCn1c(=O)c2sccc2n2c(SCc3ccc(F)cc3)nnc12
i	1.1	Cn1nc(-c2ccc(Cl)cc2)c2cc(C(=O)Nc3ccccc3Br)sc21
i	0.27	Cc1ccc(-n2nc(-c3ccccc3)c3c2NC(=O)CC3c2ccc3c(c2)OCO3)cc1 (stereo unspecified)
i	-1	CC(=O)Nc1ccc(C(=O)N2CCCC(c3nc(-c4ccc(NC(C)=O)cc4)no3)C2)cc1 (stereo unspecified)
i	0.9	COc1cccc(NC(=O)c2oc3ccccc3c2NC(=O)C2c3ccccc3Oc3ccccc32)c1
i	-1.3	COc1cccc(-c2nn(Cc3nc(-c4ccc(OC)c(OC)c4)oc3C)c(=O)c3noc(C)c23)c1
i	-0.5	O=C(c1cc(C2CC2)[nH]n1)N1CCC(Cc2ccccc2)CC1
i	0.29	CC(C)NC[C@@H](O)COc1ccc(CC(N)=O)cc1
i	-0.97	CCC(=O)N1CCc2cc(N3CC(C(=O)NC(C)C)CC3=O)ccc21 (stereo unspecified)
i	-0.12	O=C(C1CCN(c2nn3c(=O)c4c(nc3s2)CCCC4)CC1)N1CCN(c2ccccc2)CC1
i	1.3	O=C(CCCn1c(=O)c2cccn2c2ccc(Br)cc21)NC1CCS(=O)(=O)C1 (stereo unspecified)
i	-0.23	O=C(CN1CCN(Cc2ccccc2)C(=O)C1=O)N1CCN(c2ccccn2)CC1
i	0.7	CCc1cc(C2CCCN2C(=O)c2c(Cl)cnn2C)on1 (stereo unspecified)
i	-0.56	COc1cc(NC(=O)Cn2cnc3c(sc4ncccc43)c2=O)cc(OC)c1
i	-0.93	Fc1ccc(OCc2nn3c(-c4cccnc4)nnc3s2)cc1
i	-0.81	CCOC(=O)c1ccccc1NC(=O)CSc1ncc(S(=O)(=O)c2ccc(C(C)(C)C)cc2)c(=O)[nH]1
i	0.14	Cc1noc(C)c1C1CCCN1C(=O)c1cnn2c(C(F)(F)F)cc(-c3ccccc3)nc12 (stereo unspecified)
i	-1.1	Cc1oc2ncnc(N3CCC(C(=O)NC4CC4)CC3)c2c1C
i	0.63	Cc1cccc(N2CCn3c2nc2c3c(=O)n(CC(=O)O)c(=O)n2C)c1
i	-0.97	CCCCC(=O)Nc1ccc(S(=O)(=O)N2CCC(c3nc4ccccc4s3)CC2)cc1
i	0.57	O=C(O)COc1ccc(-c2nnn(CC(=O)O)n2)cc1
i	-1.5	Cc1ccc(-c2noc(CSc3nc4cc5c(cc4c(=O)n3-c3ccc(F)cc3)OCO5)n2)cc1
i	1.5	O=C(NCC(c1ccc(Cl)cc1)N1CCCCC1)c1cc(-c2ccc3c(c2)OCCO3)on1 (stereo unspecified)
i	1	COc1ccc(NC(=O)C2CCCN(c3nc4ccccc4nc3C(F)(F)F)C2)c(OC)c1 (stereo unspecified)
i	0.33	COc1ccc(CNC(=O)C2(C)Cc3ccccc3C(=O)N2C(C)C)cc1 (stereo unspecified)
i	-0.04	CC(=O)N1CCC(C(=O)NCc2ccccc2)(N(C(=O)c2ccccc2Br)c2ccc(C)cc2)CC1
i	-1.5	Cc1nn(-c2cc(N3CCOCC3)ncn2)c(C)c1CCC(=O)N1CCN(CCO)CC1
i	-0.4	CCOC(=O)c1cnn(CCOC(=O)CC2CCCCC2)c1NC(=O)CC1CCCCC1
i	0.6	Cc1cc(C)n2ncc(C(=O)N3CCN(c4ncccn4)CC3)c2n1
i	2.1	COc1ccc(OCc2nc(-c3cc4c(C)nn(-c5ccccc5)c4s3)no2)cc1
i	0.42	Cc1cc(Cl)ccc1NC(=O)Cn1c(=O)c(C(F)(F)F)nc2ccccc21
i	0.65	COc1ccc(NC(=O)CSc2nccnc2Oc2ccc(C)cc2)cc1OC
i	0.1	O=C1C2CC3CC1CC(O)(C3)C2
i	-0.73	Cc1cccc(Cn2nc3c(S(=O)(=O)N4CCc5ccccc5C4)cccn3c2=O)c1
i	-0.53	CCc1cc2c3c([nH]c2cc1S(=O)(=O)N1CCN(c2ccccn2)CC1)CC(C)(C)CC3=O
i	0.5	Cc1[nH]c(C)c(S(=O)(=O)N2CCN(C(C)C)CC2)c1-c1nnc(C2CCC2)o1
i	0.93	CC(C)Oc1ccc(CNC(=O)CNC(=O)C2(C)Cn3c(cc4ccccc43)C(=O)N2C)cc1 (stereo unspecified)
i	0.25	COc1ccc(N2CCN(C(=O)Cn3ccc4c(SCc5ccccc5)nccc43)CC2)cc1
i	0.32	CCCc1cc(Nc2ccc(Cl)cc2)n2nc(-c3ccco3)nc2n1
i	0.28	COc1ccccc1CNC(=O)CN(C)S(=O)(=O)c1ccc2c(c1)C(=O)NCC(=O)N2
i	0.25	O=C(CCc1nnc2n(Cc3ccccc3)c(=O)c3ccccc3n12)N1CCC(Cc2ccccc2)CC1
i	-0.22	COCCOC(=O)C1=C(C)NC(=O)NC1c1cn(-c2ccccc2)nc1-c1ccc(Cl)cc1 (stereo unspecified)
i	0.48	Cn1ncc2c(Nc3ccccc3Cl)ncnc21
i	-0.59	CC(=O)OCc1cnc(C)c2oc(=O)c(C(=O)Nc3cc(F)ccc3C)cc12
i	-0.35	O=S(=O)(c1cccc2nsnc12)N1CC(OCc2ccc(F)cc2)C1
i	1.1	Cn1cc(C(=O)N2CCCCC2)c2[nH]c(=O)n(-c3ccc(Cl)cc3)c(=O)c21
i	-0.92	CCC(=O)Nc1cccc(-c2noc(C3CCCN(C(=O)c4cccc(F)c4)C3)n2)c1 (stereo unspecified)

(continued)
Choline anaer gr	Choline anaer gr early	canonical_smiles
i	2.5	Cc1cc(-c2c(C)sc(C)c2S(=O)(=O)Nc2ccc(F)c(Cl)c2)n[nH]1
i	-1.4	O=C(CN1C(=O)CCCc2ccccc21)N1CCN(Cc2ccccc2)CC1
i	-0.6	CN(C)c1ccc(-c2nc3c([nH]2)c(=O)n(C)c(=O)n3C)cc1
i	0.42	CCOC(=O)c1nn(-c2ccc(F)cc2)c(=O)cc1NCCC(c1ccccc1)c1ccccc1
i	0.21	O=C(NC1CCCC1)c1cccc(N2C(=O)CCS2(=O)=O)c1
i	1	O=S(=O)(c1ccc(Cl)cc1)N1CCN(c2ncnc3c2nnn3-c2ccccc2)CC1
i	-1.5	COCCn1nnc2cc(S(=O)(=O)N3CCCC3C(=O)NCc3ccc(C)cc3)ccc21 (stereo unspecified)
i	0.37	CN(C(=O)c1ccc(N2C(=O)CCS2(=O)=O)cc1Cl)c1ccccc1
i	-0.35	O=S(=O)(Nc1ccc2c(c1)CCCN2S(=O)(=O)c1ccccc1)c1ccc2c(c1)OCCO2
i	-0.36	Cc1nn(-c2cccc(F)c2)c2sc(C(=O)OCCc3ccccn3)cc12

Reprinted at random: two compounds from above, in no set order.
Choline anaer gr	Choline anaer gr early	canonical_smiles
i	1.1	Cn1nc(-c2ccc(Cl)cc2)c2cc(C(=O)Nc3ccccc3Br)sc21
i	-0.6	CN(C)c1ccc(-c2nc3c([nH]2)c(=O)n(C)c(=O)n3C)cc1

Carrying on.
Choline anaer gr	Choline anaer gr early	canonical_smiles
i	1.1	O=S(=O)(c1ccc(F)cc1)N1CCN(c2cc(-c3ccc(F)cc3)ncn2)CC1
i	-0.14	COc1ccc(OC)c(C(O)CNC(=O)CN)c1 (stereo unspecified)
i	0	O=C(Nc1cc(F)ccc1F)C1CCN(C(=O)c2cccn2-c2cccnc2)CC1
i	-1.2	CCc1cc2c(N3CCC(C)CC3)ncnc2s1
i	-0.02	O=c1[nH]cnc2c(-c3cccc(F)c3)csc12
i	0.63	Cc1ccc(-c2csc(Cc3nc(-c4cccc(F)c4)no3)n2)cc1
i	-1.6	CCc1cc(Sc2nnc(NC(C)=O)s2)n2ncnc2n1
i	-1.1	Cc1nc(CN2C(=O)COc3ccc(S(=O)(=O)N4CCOCC4)cc32)no1
i	0.43	Cc1nc2c(C)cccn2c(=O)c1NC(=O)c1ccc(Br)cc1
i	-0.29	CSc1ccc(-c2noc(CSc3ccc(-c4ccccc4F)nn3)n2)cc1

Single records, as listed above. Order of screens: Choline anaer gr | Choline anaer gr early
Profile of `Cc1nc2c(C)cccn2c(=O)c1NC(=O)c1ccc(Br)cc1` : i | 0.43
Profile of `CCc1cc2c(N3CCC(C)CC3)ncnc2s1` : i | -1.2

Next section
Choline anaer gr	Choline anaer gr early	canonical_smiles
i	0.53	c1cc2c(c(Nc3c4c(nc5ncnn35)CCC4)c1)CCCC2
i	-0.48	COc1ccc(-c2nc3ccccc3c3nnc(SCc4ccncc4)n23)cc1
i	-0.54	Cn1c(=O)c(C(=O)Nc2ccccc2Br)nc2ccccc21
i	0.7	Cc1ccc(NC(=O)NC(Cc2ccccc2)Cc2ccccc2)cc1C
i	-0.46	Cc1cc(N2CCN(C)CC2)nc2ccc(NC(=O)Nc3ccc4c(c3)OCCO4)cc12
i	1.4	CCCn1cc(C2=CCN(C(=O)NCC3CCCO3)CC2)c2cccnc21 (stereo unspecified)
i	-0.64	Cc1cc(N2CCn3c(nc4ccccc43)C2)ccc1NS(C)(=O)=O
i	-0.87	O=C(Nc1ccccc1)c1nnc(C2CCCN(C(=O)Nc3ccc(F)cc3F)C2)s1 (stereo unspecified)
i	-2.6&-2.9	Cc1nnc(SCC2=C(C(=O)O)N3C(=O)[C@@H](NC(=O)Cn4cnnn4)[C@H]3SC2)s1
i	-0.26	O=C(c1cnc2ccccc2c1Nc1cc(F)ccc1F)N1CCOCC1
i	-0.11	Cc1cc2c(cc1CNC(=O)c1ccc3c(c1)OCCO3)OCCCO2
i	1.5	CCc1nc(NC2CCCCC2)c2onc(-c3ccc(C)cc3)c2n1
i	-0.59	Cc1nn(-c2nc3ccccc3n2C)c2c1C(c1ccccc1Cl)CC(=O)N2 (stereo unspecified)
i	-1.3	CC1CCN(c2ncc3c(n2)CCC(C(=O)NCCc2cccs2)C3)CC1 (stereo unspecified)
i	0.38	Cc1ccccc1C(=O)Nc1ccc(N2CCN(c3ccc(Cl)cc3)CC2)c(C(=O)O)c1
i	-0.79	CCCc1nc2nc(C)c(NS(=O)(=O)c3ccc(F)cc3)c(=O)n2[nH]1
i	-0.68	CCCCC[C@H](O)/C=C/[C@H]1OC(O)C[C@H](O)[C@@H]1C/C=C\CCCC(=O)O (stereo partly specified)
i	-0.53	CCC(C)NC(=O)CCn1c(=O)c2ccccc2n2c(SCC(=O)NCC3CCCO3)nnc12 (stereo unspecified)
i	1.4	Cc1cc(C)c2c(n1)sc1c(N3CCN(c4ccccc4)CC3)ncnc12
i	1.2	Cc1[nH]c(C(=O)N2CCN(c3cccc(Cl)c3)CC2)c(C)c1S(=O)(=O)N1CCOCC1
i	-0.02	Cc1cccc(NC(=O)c2noc3c2CCCC3)n1
i	0.87	COc1cc(Br)cc(C2OC(c3cc(C4CC4)nc4ccccc34)=NN2C(C)=O)c1OC(C)=O (stereo unspecified)
i	0.31	COc1cccc(NC(=O)Cn2c(=O)nc(-c3ccccc3)c3ccccc32)c1
i	-0.15	COCc1nnc(C(=O)Nc2ccc(C(=O)N3CCN(c4ccccn4)CC3)cc2)s1
i	0.24	Cc1sc2ncn3c(SCC(=O)Nc4ccccc4)nnc3c2c1C
i	1.4	C=CCNc1oc(-c2ccc(S(=O)(=O)N3CCCC3)cc2)nc1C#N
i	-0.53	O=S(=O)(NC1CC1)c1cc(-c2noc(C3CCC3)n2)cs1
i	-1.6	COc1ccc(NC(=O)CN2C(=O)c3ccccc3C2=O)cn1
i	0.21	CCc1ccc(NC(=O)NCc2c(C)nn(-c3ccccc3)c2-n2cccc2)cc1
i	0.68	Nc1ncnc2c1ncn2C1CCCC1
i	-0.31	CCn1nnc2cc(C(=O)N(C)CC(=O)Nc3ccc(S(N)(=O)=O)cc3)ccc21
i	0.59	Cc1ccc2[nH]cc(CCN3CC(C(=O)NC4CCCCC4)CC3=O)c2c1 (stereo unspecified)
i	-0.26	c1cnn(-c2cc(N3CCSCC3)ncn2)c1
i	1.1	O=C(c1cnn2c(C(F)(F)F)cc(-c3ccccc3)nc12)N1CCC(Cc2ccccc2)CC1
i	-0.59	O=C(Cn1cnc(S(=O)(=O)N2CCCCC2)c1)NC1CCN(Cc2ccccc2)CC1
i	0.9	COc1ccc(-c2noc(-c3cccnc3N3CCOCC3)n2)cc1
i	-2.2	Cc1c(C(=O)NCC2(N3CCN(C)CC3)CCCCC2)oc2ccc(F)cc12
i	0.72	O=C(NC1CC1)c1cnn2c(-c3ccccc3)cc(-c3ccccc3)nc12
i	-0.47	CCCN1CCn2c(nc3cc(Cl)ccc32)C1
i	-0.86	Cc1csc(-c2cc(S(=O)(=O)NC(C)(C)C)cn2CC(=O)N2CCCC2)n1
i	-0.67	CNc1n[nH]c(N)c1-c1nc(-c2ccc(OC)cc2)no1
i	0.2	O=C(NC1CC1)C1CCN(c2ncnc3c2sc2ncccc23)CC1

Part of the list above in order of length of the SMILES, rising:
Choline anaer gr	Choline anaer gr early	canonical_smiles
i	-0.26	c1cnn(-c2cc(N3CCSCC3)ncn2)c1
i	-0.67	CNc1n[nH]c(N)c1-c1nc(-c2ccc(OC)cc2)no1
i	0.2	O=C(NC1CC1)C1CCN(c2ncnc3c2sc2ncccc23)CC1
i	-0.86	Cc1csc(-c2cc(S(=O)(=O)NC(C)(C)C)cn2CC(=O)N2CCCC2)n1
i	-0.59	O=C(Cn1cnc(S(=O)(=O)N2CCCCC2)c1)NC1CCN(Cc2ccccc2)CC1
i	-0.31	CCn1nnc2cc(C(=O)N(C)CC(=O)Nc3ccc(S(N)(=O)=O)cc3)ccc21
i	1.1	O=C(c1cnn2c(C(F)(F)F)cc(-c3ccccc3)nc12)N1CCC(Cc2ccccc2)CC1

Source: PubChem BioAssay (ICCB-Longwood Screening Facility, Harvard Medical School)
